ID4 SMM = binds human ID4 protein on microarray. small molecule microarray, Flag-ID4 binding, fluorescence F/B. calls only. 1.2% of 31,000 active. AID 624137;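 active means spot signal over background at p below 0.07 in all four prints; compounds were printed on slides so no solution concentration is given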;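 further: a binder raises fluorescence above local background on the spot; about 2 pmol printed per array spot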
Target sequence (P47928 whole entry, looked up): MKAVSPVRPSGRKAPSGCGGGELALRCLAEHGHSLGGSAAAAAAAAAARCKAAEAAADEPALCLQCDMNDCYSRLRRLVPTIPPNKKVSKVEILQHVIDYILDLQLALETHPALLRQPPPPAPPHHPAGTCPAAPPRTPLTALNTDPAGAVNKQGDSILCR
Calls only; i = inactive; + = active, no number.

SMILES | ID4 SMM
Cc1sc(NC(=O)c2cc(-c3cccnc3)nc3ccccc23)c(C(=O)NC2CCCCC2)c1C | i
CC(Sc1nc(O)c(-c2ccccc2)c(=O)[nH]1)C(=O)Nc1ccc(Cl)cc1 (stereo not drawn) | i
Cc1ccc2oc(-c3cccc(NC(=O)COc4ccc5ccccc5c4)c3)nc2c1 | i
COc1ccc(-n2c(SCC(=O)Nc3cccc4ccccc34)nc(O)cc2=O)cc1 | i
CS(=O)(=O)N(CC(=O)Nc1ccc(C(N)=O)cc1)c1cc(Cl)cc(Cl)c1 | i
COc1ccc(NC(=O)CSc2n[nH]c(-c3ccccc3)n2)cc1 | i
C[C@H]1CN([C@@H](C)CO)S(=O)(=O)c2ccc(-c3ccc(C#N)cc3)cc2O[C@H]1CN(C)C(=O)Nc1cc(F)ccc1F | +
COc1cccc(S(=O)(=O)N[C@H]2CC[C@H](CC(=O)NC3CCC3)O[C@H]2CO)c1 | i
CCn1c(SCC(=O)Nc2c(C)cccc2C)nnc1-c1cnccn1 | +
COCC#Cc1cnc2c(c1)C(=O)N([C@@H](C)CO)C[C@@H](C)[C@@H](CN(C)C(=O)Nc1ccc(OC)cc1)O2 | i
O=C(C[C@H]1C=C[C@H](NC(=O)C2CC2)[C@H](CO)O1)NCC1CC1 | i
CC(C)c1ccc(OCC(=O)Nc2ccc(Br)cc2C(=O)O)cc1 | i
C[C@H]1CN([C@@H](C)CO)S(=O)(=O)c2ccc(C#CC3CCCC3)cc2O[C@H]1CN(C)S(C)(=O)=O | i
CCn1cc(C(=O)N(C)C2CCCCC2)c2cc(OC)c(OC)cc2c1=O | i
COc1ccccc1Nc1nc(N)nc(CSc2nccn2C)n1 | i
O=C(Cc1ccccc1[N+](=O)[O-])Nc1ccccc1C(=O)N1CCCC1 | i
CO[C@@H](CN(C)C(=O)c1cnccn1)[C@@H](C)CN([C@H](C)CO)S(=O)(=O)c1ccc(F)cc1 | i
O=C(CCN1CCCCC1)N[C@@H]1C=C[C@@H](CC(=O)N2CCC(Cc3ccccc3)CC2)O[C@H]1CO | i
O=C(CCCC(=O)Nc1cc(C(F)(F)F)ccc1Cl)Nc1cc(C(F)(F)F)ccc1Cl | i
COc1ccccc1S(=O)(=O)N[C@H]1C=C[C@H](CC(=O)N2CCOCC2)O[C@@H]1CO | i
COc1cc(C(=O)Nc2ccc(C(=O)NCC3CCCO3)cc2)cc(OC)c1OC (stereo not drawn) | i
C[C@@H]1CN([C@H](C)CO)C(=O)c2cc(C#CC3CCCCC3)cnc2O[C@@H]1CN(C)S(=O)(=O)c1ccc(F)cc1 | i
CC(=O)c1ccc(NC(=O)CN(C)S(=O)(=O)c2ccccc2)cc1 | i
COc1ccc(-n2c(SCC(=O)c3cccc([N+](=O)[O-])c3)nnc2-c2ccc(Cl)cc2)cc1 | i
O=C(NC(=S)Nc1ccccc1N1CCCC1)c1ccccc1Br | i
NCC[C@H]1CC[C@@H](NC(=O)c2ccccc2F)[C@@H](CO)O1 | i
Cc1ccc(NC(=O)CSc2nnc(-c3ccccc3)n2-c2ccccc2)c(Br)c1 | i
Cc1cc(-c2ccccc2)nc(SCC(=O)Nc2ccccc2C#N)n1 | i
Cc1cc(C)c2oc(-c3cccc(NC(=O)COc4ccc(Br)cc4)c3C)nc2c1 | i
COc1ccc(-c2nnc(SCC(=O)Nc3cc(Cl)c(Cl)cc3Cl)n2C)cc1 | i

In a second layout: entries from further up
SMILES,ID4 SMM
COCC#Cc1cnc2c(c1)C(=O)N([C@@H](C)CO)C[C@@H](C)[C@@H](CN(C)C(=O)Nc1ccc(OC)cc1)O2,i
O=C(C[C@H]1C=C[C@H](NC(=O)C2CC2)[C@H](CO)O1)NCC1CC1,i
CC(C)c1ccc(OCC(=O)Nc2ccc(Br)cc2C(=O)O)cc1,i
C[C@H]1CN([C@@H](C)CO)S(=O)(=O)c2ccc(C#CC3CCCC3)cc2O[C@H]1CN(C)S(C)(=O)=O,i
CCn1cc(C(=O)N(C)C2CCCCC2)c2cc(OC)c(OC)cc2c1=O,i
COc1ccccc1Nc1nc(N)nc(CSc2nccn2C)n1,i
O=C(Cc1ccccc1[N+](=O)[O-])Nc1ccccc1C(=O)N1CCCC1,i
CO[C@@H](CN(C)C(=O)c1cnccn1)[C@@H](C)CN([C@H](C)CO)S(=O)(=O)c1ccc(F)cc1,i
O=C(CCN1CCCCC1)N[C@@H]1C=C[C@@H](CC(=O)N2CCC(Cc3ccccc3)CC2)O[C@H]1CO,i
O=C(CCCC(=O)Nc1cc(C(F)(F)F)ccc1Cl)Nc1cc(C(F)(F)F)ccc1Cl,i
COc1ccccc1S(=O)(=O)N[C@H]1C=C[C@H](CC(=O)N2CCOCC2)O[C@@H]1CO,i
COc1cc(C(=O)Nc2ccc(C(=O)NCC3CCCO3)cc2)cc(OC)c1OC (stereo not drawn),i
C[C@@H]1CN([C@H](C)CO)C(=O)c2cc(C#CC3CCCCC3)cnc2O[C@@H]1CN(C)S(=O)(=O)c1ccc(F)cc1,i
CC(=O)c1ccc(NC(=O)CN(C)S(=O)(=O)c2ccccc2)cc1,i
COc1ccc(-n2c(SCC(=O)c3cccc([N+](=O)[O-])c3)nnc2-c2ccc(Cl)cc2)cc1,i
O=C(NC(=S)Nc1ccccc1N1CCCC1)c1ccccc1Br,i
NCC[C@H]1CC[C@@H](NC(=O)c2ccccc2F)[C@@H](CO)O1,i
Cc1ccc(NC(=O)CSc2nnc(-c3ccccc3)n2-c2ccccc2)c(Br)c1,i

(next part)
SMILES | ID4 SMM
COc1cc(C(=O)Nc2ccc(OCC(=O)O)cc2)ccc1OC(C)=O | i
O=C(NCC[C@H]1CC[C@@H](NC(=O)C2CCC2)[C@@H](CO)O1)c1cc(Cl)cc(Cl)c1 | i
O=C(C[C@@H]1CC[C@H](NC(=O)Nc2ccc(C(F)(F)F)cc2)[C@H](CO)O1)NCCN1CCCC1 | i
Cc1cc(Br)c(S(=O)(=O)NCc2ccccn2)cc1C | i
O=c1c2c3c(sc2ncn1/N=C/c1cc(Br)ccc1O)CCCC3 | i
CCc1ccccc1NC(=O)CSc1nc2sc3c(c2c(=O)n1-c1ccccc1)CCC3 | i
C[C@@H]1CN([C@H](C)CO)C(=O)c2cc(-c3ccncc3)cnc2O[C@@H]1CN(C)C(=O)C1CCOCC1 | +
CCn1c(SCC(=O)Nc2cccc(Cl)c2)nnc1-c1ccco1 | i
C[C@H](CO)N1C[C@H](C)[C@@H](CN(C)C)Oc2cc(C3=CCCCC3)ccc2S1(=O)=O | i
COC(=O)c1c(=O)n(O)c2cc(Cl)c(Cl)cc2[n+]1[O-] | i
COc1ccc(NC(=O)C(C)N2c3cccc4cccc(c34)S2(=O)=O)cc1OC (stereo not drawn) | i
COC(=O)c1ccc(-n2c(CCC(=O)O)ccc2-c2ccc(Br)cc2)cc1 | i
CCN(CC(=O)Nc1ccc(Cl)cc1C)S(=O)(=O)c1ccc(C)cc1 | i
O=C(CSc1nnc2c(n1)[nH]c1ccccc12)NCc1ccccc1 | i
C[C@H]1CN([C@@H](C)CO)C(=O)c2cc(-c3ccc(C#N)cc3)cnc2O[C@@H]1CN(C)C(=O)CC1CC1 | i
Cc1ccc(N(C(C)C(=O)Nc2cc([N+](=O)[O-])ccc2C)S(C)(=O)=O)cc1 (stereo not drawn) | i
C[C@@H]1CN([C@H](C)CO)C(=O)c2cc(C#CC3CC3)cnc2O[C@H]1CN(C)C(=O)C1CCCCC1 | i
CCC(=O)N(C)C[C@H]1Oc2ncc(C#CCc3ccccc3)cc2C(=O)N([C@@H](C)CO)C[C@@H]1C | i
C[C@H](CO)N1C[C@H](C)[C@H](CN(C)Cc2ccccc2F)Oc2ncc(-c3ccccc3F)cc2C1=O | i
COc1ccc(CCCOC(Cn2ccnc2)c2ccc(OC)cc2)cc1 (stereo not drawn) | i
COc1ccccc1OC(C)C(=O)Nc1c(C)n(C)n(-c2ccccc2)c1=O (stereo not drawn) | i
COc1ccc(C(=O)CSc2nc(C)cc(=O)[nH]2)cc1[N+](=O)[O-] | i
C/C=C/c1cnc2c(c1)C(=O)N([C@@H](C)CO)C[C@H](C)[C@@H](CN(C)Cc1cncnc1)O2 | i
COc1ccc(NC(=O)CSc2nc(C)cc(=O)[nH]2)c(OC)c1 | i
COC(=O)CNC(=O)c1ccc(S(=O)(=O)N2CCOCC2)cc1 | i
Cc1cccc(-n2c(SCC(=O)Nc3ccccc3)nnc2-c2ccccc2)c1 | i
C[C@@H]1CN([C@@H](C)CO)C(=O)c2cc(C#CC(C)(C)O)cnc2O[C@@H]1CN(C)C(=O)c1ccccc1F | i
COc1ccc(S(=O)(=O)NCc2ccccn2)cc1I | i
O=C(N[C@H]1C=C[C@@H](CC(=O)N2CCc3ccccc3C2)O[C@@H]1CO)C1CCC1 | i
Cc1sc2c(c1C)CN(C(C)(C)C)CN2C(=O)c1ccccc1 | i
CN(C)c1ccc2c(c1)[C@@H]1C[C@@H](CC(=O)NCc3ccncc3)O[C@H](CO)[C@@H]1O2 | i
CCn1c(SCC(=O)Nc2ccc(C)cc2Br)nnc1-c1ccc(Cl)cc1 | i
C[C@@H]1CN([C@@H](C)CO)C(=O)c2cc(NC(=O)C3CC3)ccc2O[C@@H]1CN(C)CC1CC1 | i
C[C@@H]1CN([C@H](C)CO)S(=O)(=O)c2ccc(C#Cc3ccccc3)cc2O[C@@H]1CN(C)C | i
O=c1oc2ccccc2cc1-c1csc(Cc2nc3c(s2)CCCC3)n1 | i
C[C@@H]1CN([C@H](C)CO)C(=O)c2cc(-c3cccnc3)cnc2O[C@@H]1CN(C)C | i
Cc1ccc(-c2cnc3c(c2)C(=O)N([C@@H](C)CO)C[C@H](C)[C@H](CN(C)Cc2ccccc2C(=O)O)O3)cc1 | i
Cc1ccc(C)c(NC(=O)Cn2nc([N+](=O)[O-])c(Br)c2C)c1 | i
CO[C@H](CN(C)Cc1ccc(-c2ccccn2)cc1)[C@H](C)CN(C(=O)Nc1ccc(F)cc1)[C@@H](C)CO | i
CS(=O)(=O)Nc1ccc2c(c1)[C@H]1C[C@@H](CC(=O)N3CCc4ccccc4C3)O[C@H](CO)[C@H]1O2 | i
COc1cccc(C(=O)Nc2sc3c(c2C(=O)NCc2cccnc2)CCCC3)c1 | i
O=C(C[C@@H]1C=C[C@@H](NC(=O)Nc2ccccc2F)[C@H](CO)O1)NCc1ccc(F)cc1 | i
O=C(N[C@@H]1CC[C@H](CC(=O)N2CCN(c3ccccc3)CC2)O[C@H]1CO)c1ccccc1 | i
O=C(COc1cc(Cl)c(Cl)cc1Cl)Nc1cccnc1 | i
CCOc1nc2cccc(C(=O)OC(C)OC(=O)OC3CCCCC3)c2n1Cc1ccc(-c2ccccc2-c2nn[nH]n2)cc1 (stereo not drawn) | i
C/C=C/c1cnc2c(c1)C(=O)N([C@H](C)CO)C[C@H](C)[C@H](CN(C)C(=O)c1cccc(F)c1)O2 | i
CC(C)C#Cc1cnc2c(c1)C(=O)N([C@@H](C)CO)C[C@H](C)[C@@H](CN(C)Cc1cccc(F)c1)O2 | i
C[C@@H]1CN([C@H](C)CO)C(=O)c2cc(-c3ccccc3)cnc2O[C@@H]1CN(C)C(=O)Nc1ccccc1 | i
C[C@@H]1CN([C@H](C)CO)C(=O)c2cc(C#Cc3ccccc3F)cnc2O[C@@H]1CN(C)C(=O)C1CCC1 | i
COc1cc(Cl)c(C)cc1NC(=O)CSc1nnc(-c2ccncc2)n1C | i
C[C@@H]1CN([C@@H](C)CO)C(=O)c2cc(-c3cccc(F)c3)cnc2O[C@H]1CN(C)Cc1ccccn1 | i
COc1ccc(NC(=O)CSc2nc3sc4c(c3c(=O)n2-c2ccccc2)CCCC4)c([N+](=O)[O-])c1 | i
COC(=O)c1cc(OC)c(OC)cc1NC(=O)Cn1nnc(-c2ccccc2Cl)n1 | i
CC(NC(=O)c1ccccc1NC(=O)C1COc2ccccc2O1)c1ccccc1 (stereo not drawn) | i
C[C@@H]1CN([C@@H](C)CO)C(=O)c2cc(C#Cc3cccc(F)c3)cnc2O[C@H]1CN(C)C(=O)C1CC1 | i
O=C(CC1(O)C(=O)N(Cc2ccccc2)c2ccc(Cl)cc21)c1ccncc1 (stereo not drawn) | i

Molecules above with a CF3 group (2):
SMILES | ID4 SMM
O=C(CCCC(=O)Nc1cc(C(F)(F)F)ccc1Cl)Nc1cc(C(F)(F)F)ccc1Cl | i
O=C(C[C@@H]1CC[C@H](NC(=O)Nc2ccc(C(F)(F)F)cc2)[C@H](CO)O1)NCCN1CCCC1 | i

This is a subset; count on the stated rates, not on these rows.
